OXTR ag – human OXTR agonists, primary screen, fluorescence, CHO-OTR cells, Fluo-8 calcium | Oxytocin receptor (Homo sapiens), P30559 | Fluo-8 calcium fluorescence; normalized: DMSO 0%, oxytocin 100% | activation, % at 3 µM | hit rate 0.32% among 320,000 | AID 2435, 2010;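 active = activation above the mean of all tested compounds plus 3 SD, cutoff set per screening run, cut at about 20% in these data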;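 also: peak over basal fluorescence ratio from a 100 s FLIPR kinetic read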
Target sequence (P30559 whole entry, looked up): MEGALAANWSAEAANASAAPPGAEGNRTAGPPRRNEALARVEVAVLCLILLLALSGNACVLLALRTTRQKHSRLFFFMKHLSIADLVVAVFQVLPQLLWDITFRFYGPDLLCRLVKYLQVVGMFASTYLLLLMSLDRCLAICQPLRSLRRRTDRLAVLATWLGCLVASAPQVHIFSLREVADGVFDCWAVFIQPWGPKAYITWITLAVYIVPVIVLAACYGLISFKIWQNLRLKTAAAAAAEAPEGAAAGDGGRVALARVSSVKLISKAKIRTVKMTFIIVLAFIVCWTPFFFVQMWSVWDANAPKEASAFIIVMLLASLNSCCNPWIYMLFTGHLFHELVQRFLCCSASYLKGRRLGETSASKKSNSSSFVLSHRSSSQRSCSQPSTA
TAAR1 antag – human TAAR1 antagonists, primary screen, Fluo-8 calcium fluorescence, CHO RD-HGA16 cells. Trace amine-associated receptor 1 (Homo sapiens), Q96RJ0. antagonist. inhibition, % at 3 µM. hit rate 1.5% among 360,000. AID 624466, 2012;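 active = inhibition above a per-plate cutoff, the mean inhibition of test compounds on that plate plus 3 SD, cut at about 49% in these data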;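 also: 0% = DMSO plus EC80 beta-PEA response and 100% = DMSO alone without agonist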
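test system = CHO RD-HGA16 cells bearing hTAAR1 | replication = singlicate | controls = DMSO-only wells and EC80 β-PEA-stimulated wells | reagent = EC80 β-phenethylamine stimulus | read-out basis = percent inhibition of PEA-evoked calcium signal, max/basal emission ratio | schedule = seeding 17-24 h prior, 75-min 37 °C, 30-min RT dye loading | signal = kinetic Fluo-8 calcium fluorescence measurement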
OXTR potentiator – human OXTR potentiators, primary screen, fluorescence, CHO-OTR cells, Fluo-8 calcium; Fluo-8 calcium fluorescence, potentiator mode; 0% = oxytocin EC15, 100% = EC100; activation, % at 3 µM; hit rate 0.061% among 320,000;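 active = activation above that plate's cutoff, the mean activation of tested compounds plus 3 SD, cut at about 6.6% in these data, passing the limit was not always enough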;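 also: 100% uses oxytocin at 75 nM as the full agonist control; some results filed as inactive read as strong as hits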
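Measured by – Fluo-8 calcium dye fluorescence · Test system – human OTR in CHO cells · Dosing – one concentration, 3.0 µM compound · Controls – EC15 oxytocin alone as 0%, 75 nM oxytocin as 100% · Evaluation – normalized max/min fluorescence ratio, % activation · Timing – 6 min pre-incubation, 100 s read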
CHO parental Ca – ATP-evoked calcium signal inhibitors, parental CHO, primary screen, counter-screen for OX1R antagonist project, cell-based, fluorescence, Fluo-8 calcium dye. parental CHO-K1, ATP-induced calcium, Fluo-8 fluorescence. inhibition, % at 5.6 µM. hit rate 0.63% among 330,000. AID 463079, 2010;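 active = inhibition above that plate's mean sample inhibition plus 3 SD, cut at about 26% in these data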;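 also: 0% = ATP-challenged DMSO wells and 100% = DMSO wells without ATP; some compounds past the cut are filed as inactive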
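Assay system: parental CHO cells; Read-out basis: percent inhibition of ATP-evoked calcium rise, normalized to controls; Benchmarks: ATP and no-ATP DMSO wells; Compound dosing: single nominal dose of 5.6 µM per compound; Signal: Fluo-8 calcium dye fluorescence; Also added: ATP as calcium-mobilizing challenge; Repeats: singlicate.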
V1aR counter – agonists of human V1a receptor, primary screen, counter-screen for OXTR agonist project, fluorescence, CHO-V1R cells. Fluo-8 calcium fluorescence, agonist mode; 0% DMSO, 100% 3 nM vasopressin. hit rate 0.25% among 320,000. activation, % at 3 µM. Vasopressin V1a receptor (Homo sapiens), P37288;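 active = activation above the mean activation of all tested compounds plus 3 SD, per screening run, cut at about 20% in these data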;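 also: signal is peak over basal fluorescence ratio across a 100 second FLIPR read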
Target sequence (P37288 whole entry, looked up): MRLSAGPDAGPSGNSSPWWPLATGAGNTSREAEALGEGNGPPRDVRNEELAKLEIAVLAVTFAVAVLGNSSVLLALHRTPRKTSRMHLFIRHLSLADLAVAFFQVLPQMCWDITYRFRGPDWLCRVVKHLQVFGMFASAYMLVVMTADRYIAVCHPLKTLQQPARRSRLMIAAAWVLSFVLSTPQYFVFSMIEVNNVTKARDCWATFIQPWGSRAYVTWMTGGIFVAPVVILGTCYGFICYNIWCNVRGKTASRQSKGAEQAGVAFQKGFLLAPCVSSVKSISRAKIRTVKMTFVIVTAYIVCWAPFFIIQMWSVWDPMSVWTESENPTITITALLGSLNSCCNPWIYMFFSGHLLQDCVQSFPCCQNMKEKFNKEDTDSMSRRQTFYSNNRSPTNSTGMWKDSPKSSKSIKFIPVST
TAAR1 agonist – human TAAR1 agonists, primary screen, Fluo-8 calcium fluorescence, CHO RD-HGA16 cells; activation, % at 3 µM; Trace amine-associated receptor 1 (Homo sapiens), Q96RJ0; AID 624467, 2012; hit rate 0.99% among 360,000; vehicle wells 0%, saturating PEA agonist 100%;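 active = activation above the mean activation of all test compounds in the run plus 3 SD, cut at about 38% in these data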
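Test system: RD-HGA16 (CHO) cells co-expressing Gα16 and hTAAR1; dosing: one-point dosing at 3 µM (nominal); timing: 17-24 h seeding, 75 min 37 °C dye, 30 min RT; signal: kinetic Fluo-8 calcium fluorescence; read-out basis: % activation relative to PEA EC100 response; controls: DMSO and PEA EC100; replicates: n 1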
Numbers without * were called inactive; . = no result given; & = joins results of further samples. Some of the compounds tested (hit frequency here may not be typical).

SMILES	OXTR ag	TAAR1 antag	OXTR potentiator	CHO parental Ca	V1aR counter	TAAR1 agonist
O=C1C(CCS(=O)c2ccccc2)C(=O)N(c2ccccc2)N1c1ccccc1 (centres undefined)	-0.6	-25	-7	-15	-0.1	4
O=c1[nH]cnc2[nH]ncc12	0.8	4	-6	-13	0.8	1
NCCS	1.0	11	1	-6	0.6	1
Nc1ccc(S(=O)(=O)NC(=O)c2ccccc2)cc1	-0.1	.	-5	1	0.2	.
O=c1[nH]c(=O)n(C2CC(O)C(CO)O2)cc1I (centres undefined)	.	10	.	.	.	1
C#C[C@]1(O)CC[C@H]2[C@@H]3CCc4cc(O)ccc4[C@H]3CC[C@@]21C	5.1	42	-17	-10	6.7	12
Cc1cn([C@H]2C=C[C@@H](CO)O2)c(=O)[nH]c1=O	0.5&1.1	-14&2	-4&-1	-6&-9	0.7&1.1	5&4
CCCc1nc(C)c2c(=O)[nH]c(-c3cc(S(=O)(=O)N4CCN(CC)CC4)ccc3OCC)nn12	-1.1	3	-8	-10	-0.2	0
O=C1NC(=O)C(c2ccccc2)(c2ccccc2)N1	0.3&0.3	-16&-11&-21	-2&-9	-13&-4	0.3&1.9	1&3&1
Cc1ccc(Cl)c(Nc2ccccc2C(=O)O)c1Cl	-0.5&-0.9	-25&-27	-2&-1	-4&-7	1.0&0.9	-3&-3
COc1cc(NS(=O)(=O)c2ccc(N)cc2)nc(OC)n1	0.5	9	-4	-5	0.4	0
CC(C)NCC(O)COc1ccc(CC(N)=O)cc1 (centres undefined)	1.7	-3	-3	-6	1.0	2
Cc1cc(NC(=O)CSc2nc(C(C)C)nc3sc(C)c(C)c23)no1	-0.9	20	3	-13	0.2	15
C[C@]12C[C@H](O)[C@H]3[C@@H](CCC4=CC(=O)CC[C@@]43C)[C@@H]1CC[C@@H]2C(=O)CO	2.0	-9	-8	-2	1.4	1
C[C@@]12C(=O)OC(=O)[C@]1(C)C1CCC2O1	1.1	-13	1	-3	1.5	1
CC(C)NC[C@@H](O)c1ccc(O)c(O)c1	1.4	-23	-4	-12	0.4	2
O=c1ccc2ccccc2o1	0.1	-6	1	-4	-0.4	0
CC1(C)SC2C(NC(=O)C3(N)CCCCC3)C(=O)N2C1C(=O)O (centres undefined)	.	-13	.	.	.	0
CC1CC2C3CCC4=CC(=O)C=CC4(C)C3(F)C(O)CC2(C)C1(O)C(=O)CO (centres undefined)	0.9	-4	-15	12	0.1	2
CN(C)CCOc1ccc(/C(=C(/CCCl)c2ccccc2)c2ccccc2)cc1	2.6	-6	-2	-17	1.6	22
C=C(C)C1(O)OC(=O)C=C1OC (centres undefined)	0.7	-23	2	-5	1.2	1
O=c1cnn([C@@H]2O[C@H](CO)[C@@H](O)[C@H]2O)c(=O)[nH]1	-0.2	.	-6	-6	0.3	.
Cc1ccc(-n2c(SCc3nnc4n3CCC4)nnc2-c2ccccc2)cc1	-0.5	-2	0	-16	0.2	0
CCC1=C(C)CN(C(=O)NCCc2ccc(S(=O)(=O)NC(=O)NC3CCC(C)CC3)cc2)C1=O (centres undefined)	-0.7	-4	-6	-17	-1.1	1

Compound profiles, from the list above. Values in the order: OXTR ag | TAAR1 antag | OXTR potentiator | CHO parental Ca | V1aR counter | TAAR1 agonist
CN(C)CCOc1ccc(/C(=C(/CCCl)c2ccccc2)c2ccccc2)cc1 reads 2.6 | -6 | -2 | -17 | 1.6 | 22
C=C(C)C1(O)OC(=O)C=C1OC (centres undefined) reads 0.7 | -23 | 2 | -5 | 1.2 | 1

Among those listed so far, these have an aryl thioether with sulfur outside any ring:
SMILES	OXTR ag	TAAR1 antag	OXTR potentiator	CHO parental Ca	V1aR counter	TAAR1 agonist
Cc1cc(NC(=O)CSc2nc(C(C)C)nc3sc(C)c(C)c23)no1	-0.9	20	3	-13	0.2	15
Cc1ccc(-n2c(SCc3nnc4n3CCC4)nnc2-c2ccccc2)cc1	-0.5	-2	0	-16	0.2	0

Next part
SMILES	OXTR ag	TAAR1 antag	OXTR potentiator	CHO parental Ca	V1aR counter	TAAR1 agonist
CN1CCC[C@H]1c1cccnc1	0.2&0.2	-24&-7	-5&-1	6&-12	0.4&0.6	1&1
CCN[C@H]1C[C@H](C)S(=O)(=O)c2sc(S(N)(=O)=O)cc21	-0.3	-31	-1	2	0.4	3
Cc1ccc(-c2cc(C(F)(F)F)nn2-c2ccc(S(N)(=O)=O)cc2)cc1	0.3	6	-5	-11	0.2	3
CC(=O)N1CCN(c2ccc(OC[C@H]3CO[C@](Cn4ccnc4)(c4ccc(Cl)cc4Cl)O3)cc2)CC1	1.7	28	-8	-18	6.3	6
CNCCC(Oc1ccc(C(F)(F)F)cc1)c1ccccc1 (centres undefined)	6.1	4	-9	1	4.5	31
C[C@]12CC[C@@H]3c4ccc(O)cc4CC[C@H]3[C@@H]1CCC2=O	2.2	5	-10	1	2.9	2
CC(C)NC[C@H](O)COc1ccc(CC(N)=O)cc1	0.3	-11	1	-7	1.2	2
Oc1ccccc1O	-0.4	-5	-5	-9	-0.2	1
Cc1ccc(Cn2nnc3c(=O)[nH]c(C4CCN(S(=O)(=O)c5ccccc5)CC4)nc32)cc1	-0.5	.	-1	-6	0.4	.
CC1(C)O[C@@H]2C[C@H]3[C@@H]4CCC5=CC(=O)CC[C@]5(C)[C@@]4(F)[C@@H](O)C[C@]3(C)[C@]2(C(=O)CCl)O1	-1.3	-9	-7	-17	0.3	1
O=S(=O)(O)CCS	0.9	-23	-2	-4	0.3	3
CCOC(=O)[C@H](CCc1ccccc1)N[C@@H](C)C(=O)N1CCC[C@@H]1C(=O)O	-1.3	-24	-10	1	0.5	26
CC(=O)SC1CC2=CC(=O)CCC2(C)C2CCC3(C)C(CCC34CCC(=O)O4)C12 (centres undefined)	-0.7	7	-14	-26	0.0	13
CO[C@H]1C=CO[C@@]2(C)Oc3c(C)c(O)c4c(O)c(c5c(c4c3C2=O)NC2(CCN(CC(C)C)CC2)N=5)=NC(=O)C(C)=CC=C[C@H](C)[C@H](O)[C@@H](C)[C@@H](O)[C@@H](C)[C@H](OC(C)=O)[C@@H]1C	-1.6	.	-1	-11	-1.4	.
OCc1cccnc1	1.1	.	-12	5	0.7	.
CC(=O)O[C@]1(C(C)=O)CCC2C3C=C(C)C4=CC(=O)CC[C@]4(C)C3CC[C@@]21C (some centres undefined)	-1.0	14	-7	-16	-0.5	-1
CC(=O)O[C@H]1C[C@@]2(C)[C@@H](C[C@@H](O)[C@H]3[C@@]4(C)CC[C@@H](O)[C@@H](C)C4CC[C@@]32C)/C1=C(\CCC=C(C)C)C(=O)O (some centres undefined)	0.4	-7	-1	-15	0.0	1
O=C(O)[C@H](O)[C@@H](O)C(=O)O	-0.5	1	1	-8	0.3	0
CC1(C)S[C@@H]2[C@H](NC(=O)[C@H](N)c3ccc(O)cc3)C(=O)N2[C@H]1C(=O)O	0.1	-11	-12	-6	0.8	1
S=c1nc[nH]c2nc[nH]c12	-0.1&-0.2	-12&-9	-4&-14	-2&-11	0.4&0.4	1&2
Cc1cc(C(C)(C)C)c(O)c(C)c1CC1=NCCN1	0.8	2	3	-6	1.1	5
CN(CCO)CC(O)Cn1cnc2c1c(=O)n(C)c(=O)n2C (centres undefined) (tested in a mixture with another compound)	0.4	.	-4	-6	0.7	.
CC(=O)OCC(=O)[C@@]1(O)CC[C@H]2[C@@H]3CCC4=CC(=O)C=C[C@]4(C)[C@H]3[C@@H](O)C[C@@]21C	1.9	-2	5	-6	0.6	2
CNCC[C@@H](Oc1ccc(C(F)(F)F)cc1)c1ccccc1	17	20	-11	5	12	33
C[n+]1ccccc1/C=N/O	0.6&-0.3	-4&-6	-6&-2	-11&-13	-0.1&1.5	1&1
CCOC(=O)Nc1ccc2c(c1)N(C(=O)CN(C)C)c1ccccc1CC2	1.7	-4	-1	-9	1.0	1
CC(CCc1ccccc1)NCC(O)c1ccc(O)c(C(N)=O)c1 (centres undefined)	-0.3	-20	-1	-22	1.5	8
COc1ccc(C(=O)c2ccccc2O)c(O)c1	-0.4	-18	-4	-12	0.1	0
OC(CCN1CCCCC1)(c1ccccc1)C1CCCCC1 (centres undefined)	0.2	-15	-10	-16	-0.3	3
COc1ccc(C(NC(=O)c2ccco2)c2ccc(OC)c(OC)c2)cc1 (centres undefined)	0.1	-20	-14	-14	0.6	5
O=C(O)CCCCC1CCSS1 (centres undefined)	-0.3	-23	-2	-11	0.2	1
C[C@]12C=CC(=O)C=C1CC[C@H]1[C@@H]3C[C@@H](O)[C@](O)(C(=O)CO)[C@@]3(C)C[C@H](O)[C@@]12F	0.5	5	-2	3	-0.4	0
CN(C)CC[C@@H](c1ccc(Cl)cc1)c1ccccn1	1.0	0	3	-9	0.8	0
CCCCOc1cc(CC2CNC(=O)N2)ccc1OC (centres undefined)	-1.0	-14	-8	-5	-0.2	1
CC(C)(C)NC[C@@H](O)COc1cccc2c1CCCC2=O	-0.6	-13	-5	-20	0.6	1
NC(N)=Nc1nc(CSCC/C(N)=N/S(N)(=O)=O)cs1	-0.1	-19	-11	-7	0.2	1
O=C1c2ccccc2C(=O)C1c1ccccc1	-0.5	-3	-2	-7	0.4	-1
Nc1ccc(S(N)(=O)=O)cc1	0.8	-23	-5	0	-0.1	7
NC(=O)c1cnccn1	0.3	5	-4	-5	1.1	0
COc1cc2nc(N3CCN(C(=O)c4ccco4)CC3)nc(N)c2cc1OC	-0.5&0.7	-5	-3&-5	3&-1	-1.2&0.7	1
C[C@]12C=CC(=O)C=C1CC[C@@H]1[C@@H]2[C@@H](O)C[C@@]2(C)[C@H]1CC[C@]2(O)C(=O)CO	1.0	-3	8	-9	-0.2	3
CNCC[C@@H](Oc1ccccc1C)c1ccccc1	4.1	-8	-5	-13	0.7	4
O=C(CO)C(O)C(O)C(O)CO (centres undefined)	1.0	-23	-4	5	1.1	1
c1ccc2[nH]c(-c3cscn3)nc2c1	-0.1	1	1	-5	0.8	4
COC(=O)[C@H]1[C@H]2C[C@@H]3c4[nH]c5cc(OC)ccc5c4CCN3C[C@H]2C[C@@H](OC(=O)c2cc(OC)c(OC)c(OC)c2)[C@@H]1OC	1.4	-13	-8	-4	0.4	8
Nc1nc(F)nc2c1ncn2[C@@H]1O[C@H](CO)[C@@H](O)[C@H]1O	0.1	-14	-8	-11	-0.1	0
CC(=O)O[C@]1(C(C)=O)CC[C@H]2[C@@H]3C=C(C)C4=CC(=O)CC[C@]4(C)[C@H]3CC[C@@]21C	-0.4	-16	-3	-9	-0.1	-1
CC(C)Cn1cnc2c(N)nc3ccccc3c21	.	-10	.	.	.	0
CN1CCCN=C1/C=C/c1cccs1	0.6	-10	-3	-2	0.2	2

Among those listed so far, these contain a thiophene ring, fused or not:
SMILES	OXTR ag	TAAR1 antag	OXTR potentiator	CHO parental Ca	V1aR counter	TAAR1 agonist
Cc1cc(NC(=O)CSc2nc(C(C)C)nc3sc(C)c(C)c23)no1	-0.9	20	3	-13	0.2	15
CCN[C@H]1C[C@H](C)S(=O)(=O)c2sc(S(N)(=O)=O)cc21	-0.3	-31	-1	2	0.4	3
CN1CCCN=C1/C=C/c1cccs1	0.6	-10	-3	-2	0.2	2

Compound activity: PubChem BioAssay, The Scripps Research Institute Molecular Screening Center
